GIV-Gai inh = inhibitors of GIV peptide binding to Galpha-i3, primary screen, biochemical, fluorescence polarization, FITC-GIV GBA peptide, rat Galphai3 | Guanine nucleotide-binding protein G(i) subunit alpha-3 (Rattus norvegicus), P08753 | 90 min; active compounds read low; scaled: aluminum fluoride 0%, vehicle 100% | percent of control (FP), % (no concentration beside the values) | 0.42% of 210,000 active;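 active = replicate mean at 85% of control or lower, very high polarization wells dropped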;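 note: wells of about 15 µL received 100 nL stock; the first replicate is given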
Target sequence (P08753 whole entry, looked up): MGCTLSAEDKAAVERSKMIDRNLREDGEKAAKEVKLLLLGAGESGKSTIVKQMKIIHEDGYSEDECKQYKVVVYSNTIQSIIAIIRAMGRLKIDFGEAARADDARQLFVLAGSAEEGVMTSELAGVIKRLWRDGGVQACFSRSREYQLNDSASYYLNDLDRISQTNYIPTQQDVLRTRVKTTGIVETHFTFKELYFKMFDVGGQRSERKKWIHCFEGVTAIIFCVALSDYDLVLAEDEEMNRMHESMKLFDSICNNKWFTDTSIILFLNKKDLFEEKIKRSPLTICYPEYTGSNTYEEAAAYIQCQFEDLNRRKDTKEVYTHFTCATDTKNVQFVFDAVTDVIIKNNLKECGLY
Numbers without * were called inactive. Only part of the results is shown; rates above refer to the full screens.

GIV-Gai inh	canonical_smiles
103.3	CCOC(=O)C1=C(C(=O)OCC)SC(=C2C(=S)C(C)(C)N(C(=O)C(C)C)c3c(C)cccc32)S1
107.9	COCc1cc(C)nc2sc(C(=O)N(c3ccccc3)c3ccccc3)c(N)c12
101.6	Cc1c(CC(Cl)(Cl)Cl)c2c(n1-c1cc(C(F)(F)F)ccc1Cl)CC(C)(C)CC2=O
98.8	Cc1nc2ncnn2c(N2CCCC2)c1C
103.8	Cc1cc(NC(=O)CCc2nc(CSc3nnc(-c4ccncc4)o3)no2)no1
101.8	CCOC(=O)c1cc(C2CC2)nc2c1c(=O)n(CCc1c(C)noc1C)c(=O)n2C
109.5	CCOC(=O)CNC(=O)N1CCCC1c1cc(C(C)C)on1 (stereo not given)
108.5	Cc1cc(C(F)(F)F)c2c(n1)sc1c(O)cc(=O)[nH]c12
114.1	CCOc1cc(C2N3CCc4ccccc4C3CN2S(=O)(=O)c2ccc(OC)c3ncccc23)ccc1OC (stereo not given)
108.7	COc1ccc(-c2cn3c4c(=O)n(C)c(=O)n(C)c4nc3n2-c2ccc(OC)c(OC)c2)cc1
105.3	COc1ccc(C(=O)NCc2nnc(SCC(=O)N3N=C(c4cccs4)CC3c3ccc(F)cc3)n2C)cc1OC (stereo not given)
108.0	Cc1ccc(C2C(N3C(=O)c4ccc([N+](=O)[O-])cc4C3=O)C(=O)N2c2ccc(C)c(F)c2)cc1 (stereo not given)

4 of the compounds above, with bars between the fields.
molecule | GIV-Gai inh
CCOC(=O)CNC(=O)N1CCCC1c1cc(C(C)C)on1 (stereo not given) | 109.5
Cc1cc(C(F)(F)F)c2c(n1)sc1c(O)cc(=O)[nH]c12 | 108.5
CCOc1cc(C2N3CCc4ccccc4C3CN2S(=O)(=O)c2ccc(OC)c3ncccc23)ccc1OC (stereo not given) | 114.1
COc1ccc(-c2cn3c4c(=O)n(C)c(=O)n(C)c4nc3n2-c2ccc(OC)c(OC)c2)cc1 | 108.7

(listing goes on)
GIV-Gai inh	canonical_smiles
105.5	Cc1ccc(-c2cc3n(n2)CCCNC3)o1
100.5	COc1cc(CN2CCCC2c2c(C)noc2C)ccc1OC(C)C (stereo not given)
106.4	O=C(CSc1nc2[nH]ncc2c(=O)n1-c1ccc(Cl)cc1)Nc1ccc([N+](=O)[O-])cc1Cl
106.0	O=S(=O)(c1cn(Cc2noc(Cc3ccc(Br)cc3)n2)cn1)N1CCOCC1
98.6	Cc1cc(C)c2c(c1)[C@H]1OCC[C@H]1C(c1cc(O)ccc1Br)N2 (stereo not given in full)
111.9	Brc1ccc(-n2cc(-c3ccccc3)c3c(NCc4cccnc4)ncnc32)cc1
123.6	COc1ccc(CCn2c(=S)[nH]c3cc(C(=O)NCc4ccccn4)ccc3c2=O)cc1OC
109.2	N#Cc1c(N)nc(SCC(=O)C23CC4CC(CC(C4)C2)C3)c(C#N)c1-c1cccs1
115.1	COc1ccc2nc(NC(=O)c3sc4nc(C)[nH]c(=O)c4c3C)sc2c1
103.1	CC(C)Cn1c(=O)c(-c2ccc(C(=O)NCC3CCCO3)cc2)nc2ccccc21 (stereo not given)
99.3	O=C(NC1CCN(c2ncnc3c2CCC3)C1)c1ccsc1 (stereo not given)
104.4	CC(=O)N1CCCc2cc(S(=O)(=O)N3CCCC(C(=O)Nc4ccc5c(c4)OCO5)C3)ccc21 (stereo not given)
101.3	CC1CSc2ccc(S(=O)(=O)CCC(=O)NC3CC3)cc2NC1=O (stereo not given)
104.4	CN1CCN(CC2(c3ccccc3)CCCOc3ccccc32)CC1 (stereo not given)
102.4	CCOC(=O)c1c(C)n(CCOc2cccc(Cl)c2Cl)c2ccc(O)cc12
102.9	CNC(C)(C)c1nnnn1-c1ccccc1C
101.5	CCC(C)NC(=O)C1CCN(c2nc(C(C)C)nc3csc(C)c23)CC1 (stereo not given)
108.1	COc1ccc(C)cc1NC(=O)c1cc(S(=O)(=O)N2CCN(c3cccc(C)c3)C(C)C2)ccc1F (stereo not given)
110.6	CC1(C)CC(=O)C2=C(C1)N1C(=C(C#N)C2c2cccnc2)NC(=O)c2c1sc1c2CCCC1 (stereo not given)
106.6	COc1ccc(C2C=C(c3ccc(C)cc3)Nc3nc4ccccc4n32)cc1 (stereo not given)
102.6	CCOC(=O)C1=C(O)/C(=C/c2cccc(OC)c2)SC1=Nc1ccccc1
101.9	CC(=O)N1CCC(c2nc(-c3ccc(CNC(=O)C4CC4)s3)no2)CC1
115.6	CCN(CC)C(=O)CSc1nc2ccccc2n1S(=O)(=O)c1ccc(Cl)cc1
108.7	CCOC(=O)C1CCN(S(=O)(=O)c2ccc(F)c(C(=O)Nc3ccc(Br)cc3F)c2)CC1
102.7	CCc1ccc(-c2ccc(=O)n(CCc3nc(-c4ccc(C)cc4)no3)n2)cc1
104.6	CCc1nc2nc(C)cc(N3CCN(c4ccccc4F)CC3)n2n1
104.3	Cc1ccc(Cn2c(CNC(=O)C3CC3)nc3cccnc32)cc1
117.6	CCCC1CCc2c(sc(NC(=O)c3c(-c4c(Cl)cccc4Cl)noc3C)c2C(N)=O)C1 (stereo not given)
103.3	CCn1c(=O)c(N2CCC(NC(=O)Nc3ccc(OC)c(OC)c3)CC2)nc2ccccc21
103.0	O=c1[nH]c2ccc(S(=O)(=O)NCCC3=CCCCC3)cc2[nH]1
101.6	CC(C)CCNS(=O)(=O)c1ccc(-c2nc(C(C)C)cs2)s1
104.7	CCOc1cccc(CNS(=O)(=O)c2cc(-c3nc(C(C)(C)C)cs3)cs2)c1
105.9	CCOc1ccc(-c2[nH]nc3c2C(c2ccc4c(c2)OCO4)C(C#N)=C(N)O3)cc1OC (stereo not given)
103.0	Cc1ccc(-c2ccc(Nc3ccc(S(N)(=O)=O)cc3)nn2)cc1S(=O)(=O)N1CCCC1
108.7	Cc1csc(NC(=O)CSc2nc3[nH]ncc3c(=O)[nH]2)n1
104.0	O=C(NC1CCCCC1)c1nc(-c2ccc(S(=O)(=O)N3CCCC3)cc2)no1

Given field by field: entries from further up
> CCn1c(=O)c(N2CCC(NC(=O)Nc3ccc(OC)c(OC)c3)CC2)nc2ccccc21
  GIV-Gai inh = 103.3
> O=c1[nH]c2ccc(S(=O)(=O)NCCC3=CCCCC3)cc2[nH]1
  GIV-Gai inh = 103.0
> CC(C)CCNS(=O)(=O)c1ccc(-c2nc(C(C)C)cs2)s1
  GIV-Gai inh = 101.6
> CCOc1cccc(CNS(=O)(=O)c2cc(-c3nc(C(C)(C)C)cs3)cs2)c1
  GIV-Gai inh = 104.7

The listing continues:
GIV-Gai inh	canonical_smiles
100.8	COC(=O)c1c(-c2cccc(Cl)c2)noc1Nc1ccc2c(c1)OCO2
109.6	Cc1cccc(NC2=NC(=S)N(c3ccccc3)C23CCCCC3)c1
108.1	Cc1ccc(C)c(N2CC(O)(c3ccc(F)cc3)[N+]3=C2CCCC3)c1 (stereo not given)
105.3	CCc1nccn1Cc1noc(-c2ccco2)n1
108.8	COc1cc2c(cc1OC)C(=NC(Cc1ccccc1)C(=O)O)NC(C)(C)C2 (stereo not given)
99.3	COc1cccc(Oc2nc3ccc(Cl)cc3n3cnnc23)c1
98.8	Cn1c(SCc2ccc(F)cc2Cl)nc2c(=O)[nH]cnc21
106.4	CCCNC(=O)c1cccc(Oc2ccnc(-c3ccc(F)cc3)n2)c1
100.1	CCOc1ccc2c(c1)=C(c1sc(=S)n(Cc3ccc(OC)cc3)c1O)C(=O)N=2
112.9	COCCNc1nc(SCC(=O)NCc2ccccc2)nc2ccccc12
98.1	Cc1cc(NS(=O)(=O)c2ccc3onc(C(=O)N4CCCC4)c3c2)ccc1Br
100.6	Cc1cc(C2CCCN2C(=O)NC(C)(C)C)no1 (stereo not given)
113.9	CCCCC(C(=O)N1CCOCC1)N1C(=O)C2C3c4ccccc4C(c4ccccc43)C2C1=O (stereo not given)
102.6	O=C(Cn1nc(C(=O)Nc2ccccc2)ccc1=O)Nc1ccc2c(c1)OCCO2
100.8	CN1CCN(S(=O)(=O)c2cc(-c3nnc(C4CCCC4)o3)co2)CC1
106.9	O=c1n(Cc2ccc3c(c2)OCO3)nc2c(S(=O)(=O)N3CCOCC3)cccn12
96.0	Cc1oc(C2CCN(C(=O)NCc3ccco3)CC2)nc1C(=O)N1CCCC1
98.5	Cc1oc(-c2cccc(Br)c2)nc1CSc1nc2c(=O)[nH]cnc2n1C
109.1	CCS(=O)(=O)c1nc2ccc(NS(=O)(=O)c3ccc(C(C)C)cc3)cc2s1
101.3	Cc1ccc(N2C(=O)CSC2c2cccc(F)c2)cc1Cl (stereo not given)
101.5	Cc1ccc(C2Nc3ccc4ncccc4c3C3=C2C(=O)CC(C)(C)C3)cc1 (stereo not given)
95.2	O=S(=O)(C1CC1)N1CCC(c2cc(-c3ccccc3)n[nH]2)CC1
102.2	CCOC(=O)C1=C(O)/C(=C/c2ccc(N(C)C)cc2)SC1=Nc1cccc2ccccc12
97.8	CCOc1cccc2c1OC(c1ccc(SC)cc1)N1N=C(c3cccc(OC)c3)CC21 (stereo not given)
97.4	O=C(NCc1ccc2c(c1)OCO2)c1ccc(-c2cccnc2)cc1
96.1	COc1cccc(N/C(SCc2c(F)cccc2Cl)=C(/C#N)C(=O)NCc2ccccc2)c1
104.4	O=C(Cn1nc2c3sc(N4CCCCC4)nc3ncn2c1=O)Nc1ccc(Cl)cc1
106.4	O=S(=O)(c1cccc(F)c1)N1CCn2cccc2C1c1ccc(F)cc1 (stereo not given)
106.1	COc1ccc(N2CC(O)(c3ccc(F)cc3)[N+]3=C2CCCC3)cc1 (stereo not given)
121.3	O=C1C2C(c3ccc(Cl)cc3)OC3(C(=O)c4ccccc4C3=O)C2C(=O)N1c1cccc2ccccc12 (stereo not given)
105.6	Ic1ccc(OC2CCCCO2)cc1 (stereo not given)
97.0	N#CC(C(=O)Nc1ccc(F)cc1)=C(SCc1ccc(Cl)cc1)SCc1ccc(Cl)cc1
128.3	c1ccc2cc3c(N4CCN(CCN5CCN(c6ccnc7cc8ccccc8cc67)CC5)CC4)ccnc3cc2c1
100.0	CCOC(=O)c1ccc(N2C(SC)=NC(=Nc3cccc(C)c3)C23CCCCC3)cc1
113.3	O=C(NCC1CCCO1)c1ccc2nc3[nH]c4ccccc4c3nc2c1 (stereo not given)
101.7	Cc1csc(-c2cc(S(=O)(=O)NCCc3ccc(Cl)cc3)c(C)s2)n1
110.2	CCOC(=O)c1c2n(c3cc(Br)c(OC)cc13)CCN(Cc1ccccc1)C2
98.7	CC(C)C(=O)N1CCc2c(c(C(=O)N3CCC(C(=O)NCCC4=CCCCC4)CC3)nn2C)C1
99.1	Cn1c(=O)[nH]c2c(C(=O)N3CCSCC3)snc2c1=O
105.7	CCC(=O)N1c2ccccc2C(=C2SC(C(=O)OC)=C(C(=O)OC)S2)C(=S)C1(C)C
112.7	CCCCOC(=O)c1c(C)oc2ccc(NS(=O)(=O)c3ccc4c5c(cccc35)C(=O)N4)cc12
104.5	Cc1cccc(N2CCN(S(=O)(=O)c3cccc4nsnc34)CC2)c1C
110.5	CC1(C)CC(=O)C2=C(C1)c1c(ccc3ncccc13)NC2c1ccc(O)cc1 (stereo not given)
98.1	O=C(NCC1CCCO1)N1CCCN(c2nc3ccccc3n3cccc23)CC1 (stereo not given)
106.9	COC(=O)C1(O)/C(=C(\O)c2ccc(Br)cc2)C(=O)C(=O)N1c1ccccc1 (stereo not given)
105.5	COc1ccc(N2CCN(c3nc(NCc4ccc(Cl)cc4)nc(N4CCOCC4)n3)CC2)cc1
102.6	CC(C)NC(=O)C1CCCN(S(=O)(=O)c2cc(-c3noc(C4CCCC4)n3)cs2)C1 (stereo not given)
108.2	CC(=O)C1=NN(c2ccccc2)C2(S1)c1ccccc1C(c1cc(C)ccc1C)=NN2c1ccccc1 (stereo not given)
107.2	COCCNc1nc(SCc2cc(=O)n3ccccc3n2)nc2ccccc12
99.7	CC1CCN(c2ncc3c(n2)CCC(C(=O)NCCC2=CCCCC2)C3)CC1 (stereo not given)
100.7	Cc1cc(C)c(S(=O)(=O)N2CCCC(C)(C(=O)NCc3cccc(F)c3)C2)cc1C (stereo not given)
109.9	COc1ccc(OC)c(N=Cc2c(O)n(-c3ccccc3C)c(=S)[nH]c2=O)c1
104.8	COc1ccc(Br)cc1C1C(C(=O)N2CCOCC2)=C(C)NC2=C1C(=O)CC(C)(C)C2 (stereo not given)
111.4	COc1ccc(CNC(=O)Cn2ncn3nc4c(c3c2=O)CCCC4)cc1OC
104.9	O=C(NC1CCN(c2nnc3ccc(Cl)cn23)CC1)c1ccc(C(F)(F)F)s1
105.0	O=C(CCCn1c(=S)[nH]c2ccc(Br)cc2c1=O)N1CCN(c2ncccn2)CC1
116.4	O=C1N(CCCN2C(=O)C3(OCCO3)c3ccccc32)c2ccccc2C12OCCO2
106.5	Cc1ccc2c(c1)-c1c(ssc1=S)C(C)(C)N2C(=O)CN1CCC(C)CC1
113.6	O=C(CN1C(=O)C2C3c4ccccc4C(c4ccccc43)C2C1=O)OC1CCCCC1 (stereo not given)
99.0	COc1ccc(CCNC(=O)CSc2nnc(NC(=O)Nc3ccc(F)cc3)s2)cc1OC
95.4	CCN=C1SC(CC(=O)Nc2sc3c(c2C(=O)OC)CCCC3)C(=O)N1CC (stereo not given)
100.7	COC(=O)C(C)SC1=NS(=O)(=O)c2ccccc2N1 (stereo not given)

Screening data: PubChem, ICCB-Longwood Screening Facility, Harvard Medical School
